High-throughput results (PubChem BioAssay)
VDR inh = inhibitors of human vitamin D receptor; P11473; VDR-SRC2-3 peptide fluorescence polarization, 2 h; Potency, µM, without a hit: max response, negative = inhibition, most hits filed as inhibitors; 0.93% of 400,000 active; AID 504847; active = well fitted inhibition curve with a large enough effect; inconclusive = small, poorly fitted or top-dose-only effect, or another doubt; inactive = no such curve, though single readings can be large or run the other way; note: series mostly up to about 120 µM
Target sequence (P11473 whole entry, looked up): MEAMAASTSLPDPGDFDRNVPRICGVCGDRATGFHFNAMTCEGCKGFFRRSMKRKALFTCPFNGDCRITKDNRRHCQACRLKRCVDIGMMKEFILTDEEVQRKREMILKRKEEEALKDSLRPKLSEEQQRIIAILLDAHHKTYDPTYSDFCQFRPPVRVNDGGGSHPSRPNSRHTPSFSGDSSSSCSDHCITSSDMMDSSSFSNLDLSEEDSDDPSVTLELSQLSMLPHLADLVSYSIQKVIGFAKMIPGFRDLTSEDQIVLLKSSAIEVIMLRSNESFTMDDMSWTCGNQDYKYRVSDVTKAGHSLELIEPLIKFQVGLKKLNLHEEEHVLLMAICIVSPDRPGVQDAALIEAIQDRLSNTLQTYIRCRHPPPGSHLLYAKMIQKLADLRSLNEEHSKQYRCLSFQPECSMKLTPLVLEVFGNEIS
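Fluorescence polarization assay measuring small-molecule disruption of VDR binding to the coregulator peptide SRC2-3. Compounds were pin-transferred (23 nl) into the reagent mix and incubated 2 h at room temperature before reading.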
Active calls of the source: *; u = inconclusive; [ ] = dose if it differs, or a comment. % is set by controls: 0 for no effect and ±100 for the full control effect; potency is the fitted concentration of half-maximal effect. These rows are one share of the data, so the mix of outcomes need not match the whole.

SMILES	VDR inh
Cc1cc(C)c2cc(CN(CCO)Cc3nnnn3Cc3ccccc3)c(=O)[nH]c2c1	-4%
Cc1nc(C)n(CCNS(=O)(=O)c2ccc(C)c(C)c2)n1	12%
CCNS(=O)(=O)c1ccc(CCC(=O)N2CCN(c3cc(Cl)ccc3C)CC2)cc1	2%
CCOC(=O)c1cc(-c2ccc(OC)cc2)nn1Cc1ccccc1	-12%
Cc1nn(CCOc2ccc(Br)cc2)c(C)c1[N+](=O)[O-]	-3%
COC(=O)c1ccc(NC(=O)c2c(Br)cnn2C)cc1	u
CCCN1C(=O)SC(CC(=O)Nc2ccccc2C)C1=O (centres undefined)	30%
O=C(CN1C(=O)c2cccc([N+](=O)[O-])c2C1=O)NCc1ccccc1	3%
O=C(CSCc1ccccc1Cl)N/N=C/c1ccco1	3%
N#Cc1ccc2c(c1)N(CCCN1CCC(O)CC1)c1ccccc1S2	-1%
CC(c1n[nH]c(=S)n1-c1ccc(F)cc1)N1CCCCC1 (centres undefined)	-1%
CC(=O)c1cccc(Nc2ccc3cc(S(=O)(=O)N4CCC(C)CC4)ccc3n2)c1	8%
O=C(O)Cc1ccc(Oc2ncc(C(F)(F)F)cc2Cl)cc1	12%
Cc1ccc(NC(=O)CN(C)C(=O)Cn2ccsc2=N)cc1	12%
NS(=O)(=O)c1ccc(NC(NC(=O)c2cccnc2)C(Cl)(Cl)Cl)cc1 (centres undefined)	-3%
O=C(CC1CCCCC1)NCc1ccco1	-3%
COC(=O)C1=C(C)NC(=O)NC1c1ccc2c(c1)OCO2 (centres undefined)	-6%
COc1ccc(-n2cc(CNC(C)c3ccncn3)c(-c3cccc(F)c3)n2)cc1 (centres undefined)	13%
COc1cc(/C=C2/C(=N)N3N=C(C)SC3=NC2=O)ccc1OS(=O)(=O)c1ccc(C)cc1	-10%
CCCC(=O)Nc1cccc(NC(=O)c2ccc3c(c2)OCCO3)c1	13%
CCC(C)[C@H](NC(=O)NCCCN1CCOCC1)C(=O)OC (some centres undefined)	4%
Cc1ccc(NC(=O)N2CCN(c3cc(-c4noc(C)n4)ccc3C)CC2)c(F)c1	9%
O=C(Cc1csc2ccccc12)NCc1ccc(F)cc1	7%
COc1cc2c(cc1OC)CN(C(=O)c1sc(-c3cnccn3)nc1C)CC2	-23%
Cc1cc(C(=O)CN2C(=O)c3ccccc3S2(=O)=O)c(C)n1CC1CCCO1 (centres undefined)	-3%
CC(=O)Nc1ccc(S(=O)(=O)/N=C2\C(=O)c3ccccc3C([O-])=C2n2cc[n+](-c3ccccn3)c2)cc1	-26%
COc1ccc(C2C(=O)N(C3CCCCCC3)CC(=O)N2Cc2ccc(C)cc2)cc1OC (centres undefined)	4%
CC(C)(C)c1nc2c(C#N)c(-c3ccc(Cl)cc3)ccn2n1	-10%
CCOC(=O)C1=CC[C@@H](c2cc(OC)c(OC)c(OC)c2)N(S(=O)(=O)c2ccc(C)cc2)[C@H]1C(=O)OCC	-27%
CC1=C(C(=O)OCc2ccccc2)C(c2ccccc2Cl)NC(=O)N1C (centres undefined)	4%
CCN(CC)c1ccc(C=NCCc2ccc(S(N)(=O)=O)cc2)cc1	0%
CN(C1CCCCC1)S(=O)(=O)c1ccc2c(c1)c(=O)c(C(=O)N1CCN(c3ccc(F)cc3)CC1)cn2C	-5%
CN1CC[C@@]23c4ccccc4N[C@H]1[C@]21CCN(C)[C@@H]3Nc2ccccc21	0%
CS(=O)(=O)N(CC(=O)NC1CCCC1)c1ccc2c(c1)OCCO2	-10%
CC1CCCN(Cc2nc3c(c(=O)n(C)c(=O)n3C)n2CC(=O)c2ccccc2)C1 (centres undefined)	-16%
Cc1cc(=O)[nH]c(N/N=C/c2ccc(Cl)cc2Cl)n1	-12%
CC(=O)c1cccc(NC(=O)c2nc(-c3ccccc3)n(-c3ccccc3)n2)c1	0%
O=C(NNC(=O)c1ccccc1Br)c1ccc2nc[nH]c2c1	-11%
CCOc1cc(C2C(C(=O)OC(C)C)=C(C)N=C3SCCC(=O)N32)ccc1OC(C)=O (centres undefined)	-9%
NC(=O)CC(NC(=O)Cc1ccc(Br)cc1)c1ccc(N2CCC(N3CCCCC3)CC2)c([N+](=O)[O-])c1 (centres undefined)	-13%
O=C(NCc1cccnc1)c1ccc(S(=O)(=O)Nc2ccccc2)cc1	-19%
CCC(C)c1ccc(OCC(=O)O)cc1 (centres undefined)	-14%
COc1ccccc1C1CN(c2ccc(F)cc2F)N=C1c1cccs1 (centres undefined)	2%
Cc1ccc(OCC(=O)N/N=C\c2ccc(-c3cccc(C(=O)O)c3)o2)c(C)c1	-23%
O=C(CCC1N=C2c3ccccc3N=C(SCc3cccc(Cl)c3)N2C1=O)N1CCN(c2ccccc2)CC1 (centres undefined)	-18%
Cc1ccc(-n2c(SCC(=O)NCCN3C(=O)CSC3=O)nnc2-c2ccccc2)cc1	3%
CSC(=NCc1ccc(F)cc1)NS(=O)(=O)c1cccs1	3%
O=C(CSc1nncs1)Nc1ccc(Cl)cn1	-14%
CC1(C)CC(=O)CC2(C1)NCC(c1ccccc1)c1c2[nH]c2ccccc12 (centres undefined)	2%
Cc1cc(C)c(/C=C/c2onc(C)c2S(=O)(=O)N2CCC(C(=O)NCCc3ccccc3)CC2)c(C)c1	16%
CCOC(=O)c1[nH]c(C)c(/C(O)=C2\C(=O)C(=O)N(CCCN3CCOCC3)C2c2cccs2)c1C (centres undefined)	-9%
COc1ccc(OC)c(-c2noc(CSc3nnc(-c4ccccc4)n3-c3ccccc3)n2)c1	-5%
OCCNc1ncnc2oc(-c3ccco3)c(-c3ccco3)c12	u
CC1(C)Oc2ccc3ccc(=O)oc3c2[C@@H](O)[C@@H]1O	8%
Cc1ccc(N(Cc2ccccc2)C(=O)c2cc(S(=O)(=O)N3CCOCC3)ccc2Cl)cc1	15%
O=C(CSc1nc2ncc(Cl)cc2[nH]1)N1CCC(Cc2ccccc2)CC1	-23%
Cc1ccc(NC(=O)Cn2nnc(-c3ccccc3-n3cnnn3)n2)c(C)c1	4%
COC(=O)C1CSC2c3ccccc3C(=O)N12 (centres undefined)	-19%
c1ccc(COc2ccc(OCCCCN3CCCCC3)cc2)cc1	-3%
O=C(Nc1ccccc1N1CCCC1)C1=COCCO1	2%
More entries follow.
SMILES	VDR inh
Cn1c(=O)[nH]c(=O)c2c1nc(SCCO)n2CCCc1ccccc1	-7%
CSc1nc(N)nc2c1ncn2C1OC(CO)CC1O (centres undefined)	-18%
CCN(Cc1ccccc1)C(=O)CN1C(=O)COc2ccc(S(=O)(=O)N(CC)CC)cc21	-8%
C=CCn1c(SCc2ccc(C#N)cc2)nnc1-c1cccc(Cl)c1	-6%
COC(=O)CNC(=O)c1ccc(F)cc1	-4%
CCOCCOC(=O)C(C)Oc1ccc(Oc2ncc(C(F)(F)F)cc2Cl)cc1 (centres undefined)	7%
CCCc1cc(C(=O)Nc2cc(C)on2)no1	-5%
CCNC(=S)Nc1ccc(N(c2ccccc2)C(C)C)cc1	-16%
Cc1ccc(NC(=O)C2CCCN2S(=O)(=O)c2ccc3c(c2)CCCC(=O)N3)cc1C (centres undefined)	12%
CSc1nnc(C)c(=O)n1COC(=O)c1ccccc1	-1%
CC(=O)NC(CC(=O)NNC(=O)c1cccs1)c1ccccc1 (centres undefined)	6%
CC1=Nn2c(nnc2-c2ccccn2)SC1	6%
C=CCn1c(=O)c2c(nc3n2CCS3)n(C)c1=O	-3%
COc1ccc(NS(=O)(=O)c2ccc(C(=O)N(C)Cc3cccs3)cc2)cc1	-4%
CC1CN(c2ccc([N+](=O)[O-])cc2Cl)CCN1S(C)(=O)=O (centres undefined)	-17%
O=C(CCc1ccc(S(=O)(=O)N2CCOCC2)cc1)OCC(=O)c1ccccc1	-16%
O=C(O)CSC1=NS(=O)(=O)c2ccccc21	u
O=C(NCCO)c1nc(C(=O)c2ccc(Cl)cc2)c2ccccc2n1	-2%
CC(=O)N1c2ccc(S(=O)(=O)N3CCCC(C(=O)NCc4ccc(Cl)cc4)C3)cc2CC1C (centres undefined)	-6%
Cc1ccc(OCCNC(=O)Cc2ccc(F)cc2)cc1	0%
CCOc1ccccc1-c1nc(CN2CCCC2c2nccs2)c(C)o1 (centres undefined)	-11%
CC(=O)Nc1ccc(S(=O)(=O)NCc2ccc3c(c2)cc(C)n3C)cc1	11%
COc1cc2c(c(OC)c1OC)-c1c(cc3c(c1OC)OCO3)C[C@H](C)[C@@](C)(O)C2	4%
COc1ccc2ccccc2c1C1CC(=O)N2CN(Cc3ccco3)CSC2=C1C#N (centres undefined)	u
O=P(OC1CCCCC1)(OC1CCCCC1)C(O)c1c(Cl)cccc1Cl (centres undefined)	-1%
ON=C1CCN(c2ncc(C(F)(F)F)cc2Cl)CC1	-13%
COc1ccc(C2C(=O)N(C3CCCCCC3)CC(=O)N2Cc2ccccc2)cc1OC (centres undefined)	2%
COc1cccc(-c2nc(N3CCN(C)CC3)c3ccccc3n2)c1	-5%
O=C(NNC(=O)c1ccc(-c2ccccc2)cc1)Nc1ccc(F)cc1F	9%
COC(=O)c1ccc(S(=O)(=O)N2CCCN(Cc3ccc(F)cc3)CC2)n1C	-5%
COc1ccc(OC)c(NC(=O)c2c(N3CCCC3=O)c3cc(OC)ccc3n2C)c1	3%
O=C(CC1C(=O)NCCN1C(=O)Nc1ccccc1)Nc1ccc(F)cc1 (centres undefined)	-11%
Cn1cc(CNC(=O)C23CC4CC(CC(C4)C2)C3)cn1	-1%
Cc1ccc(-n2ncc(Br)c(Br)c2=O)cc1	-12%
Cc1ccc2c(CC(=O)N(Cc3ccc(N(C)C)cc3)Cc3ccco3)coc2c1C	8%
O=C(O)c1oc2ccccc2c1CSCc1ccccc1	-1%
COc1cc(C(=O)NC(=S)Nc2ccccc2[N+](=O)[O-])cc(OC)c1OC	-20%
O=C(Nc1cccc(S(=O)(=O)N2CCCC2)c1)c1cc(-c2ccccn2)nc2ccccc12	2%
CCOc1cc(CNC(=O)c2ccc3c(c2)N(C)C(=O)C2CCCCN32)cc(OCC)c1OCC (centres undefined)	10%
CCOc1ccc(-c2nnc(SCC(=O)N(CC)CC)n2N)cc1	1%
CCOC(=O)c1c(C)[nH]c(C(=O)OC(C)C(=O)NC2CCCCC2C)c1C (centres undefined)	40%[activator]
Cc1ccc(N(CCC#N)C(=O)CSc2nnc3ccccn23)cc1	6%
COc1ccc(CCNC(=O)CSc2nc(C)cs2)cc1	-1%
Cc1ccn2cc(C(=O)N3CCCC(Nc4ccc(F)cc4)C3)nc2c1 (centres undefined)	-10%
O=C(CCc1nc2ccccc2[nH]c1=O)OCC(=O)N1CCc2ccccc21	19%

An excerpt of these results, with bars between the fields:
mol | VDR inh
COc1ccc(C2C(=O)N(C3CCCCCC3)CC(=O)N2Cc2ccccc2)cc1OC (centres undefined) | 2%
COc1cccc(-c2nc(N3CCN(C)CC3)c3ccccc3n2)c1 | -5%
O=C(NNC(=O)c1ccc(-c2ccccc2)cc1)Nc1ccc(F)cc1F | 9%
COC(=O)c1ccc(S(=O)(=O)N2CCCN(Cc3ccc(F)cc3)CC2)n1C | -5%
COc1ccc(OC)c(NC(=O)c2c(N3CCCC3=O)c3cc(OC)ccc3n2C)c1 | 3%
O=C(CC1C(=O)NCCN1C(=O)Nc1ccccc1)Nc1ccc(F)cc1 (centres undefined) | -11%
Cn1cc(CNC(=O)C23CC4CC(CC(C4)C2)C3)cn1 | -1%
Cc1ccc(-n2ncc(Br)c(Br)c2=O)cc1 | -12%
Cc1ccc2c(CC(=O)N(Cc3ccc(N(C)C)cc3)Cc3ccco3)coc2c1C | 8%
O=C(O)c1oc2ccccc2c1CSCc1ccccc1 | -1%
COc1cc(C(=O)NC(=S)Nc2ccccc2[N+](=O)[O-])cc(OC)c1OC | -20%
O=C(Nc1cccc(S(=O)(=O)N2CCCC2)c1)c1cc(-c2ccccn2)nc2ccccc12 | 2%
CCOc1cc(CNC(=O)c2ccc3c(c2)N(C)C(=O)C2CCCCN32)cc(OCC)c1OCC (centres undefined) | 10%
CCOc1ccc(-c2nnc(SCC(=O)N(CC)CC)n2N)cc1 | 1%
CCOC(=O)c1c(C)[nH]c(C(=O)OC(C)C(=O)NC2CCCCC2C)c1C (centres undefined) | 40%[activator]
Cc1ccc(N(CCC#N)C(=O)CSc2nnc3ccccn23)cc1 | 6%
COc1ccc(CCNC(=O)CSc2nc(C)cs2)cc1 | -1%

Further compounds
SMILES	VDR inh
O=C(O)c1ccc2c(c1)CCC2	11%
CCCS(=O)(=O)N1CCCC(C(=O)NCCCN(C)Cc2ccccc2)C1 (centres undefined)	6%
CC1(C)CC2CC(C)(CN2C(=O)c2ccccc2)C1 (centres undefined)	8%
O=C(O)CCC(NC(=O)OCc1ccccc1)C(=O)O (centres undefined)	-3%
O=C(Nc1nnc(-c2cccnc2)o1)c1ccccc1Cl	-1%
Cc1ccc(NC(=O)CSC(C)C(=O)OCC(=O)N2CCN(C(=O)c3ccco3)CC2)cc1 (centres undefined)	-19%
Cc1cccc(C(=O)O/N=C(\N)Cc2cccc3ccccc23)c1	-16%
CCN1CCN(c2ncnc3c2cnn3-c2ccc(F)cc2)CC1	15%
Cc1nc(SCC(=O)Nc2ccc(C)c(F)c2)c2oc3ccccc3c2n1	-4%
Fc1ccc(N2CCN(C(c3cccs3)c3nnnn3C3CCCC3)CC2)cc1 (centres undefined)	-1%
Cc1cc(OCC(=O)Nc2ccncc2)ccc1Br	7%
COc1ccc(-c2nc3c(c(SCC(=O)N4CCCCC4)n2)Cc2cc(C)ccc2O3)cc1	-17%
CC(C)OC(=O)CSc1nnc(-c2cnccn2)n1-c1ccc(Cl)cc1	-5%
Cc1ccnc(N2CCC(C(=O)Nc3nnc(C)s3)CC2)n1	-12%
COc1ccccc1CNc1ncncc1-c1cccc(C#N)c1	0%
COc1ccccc1C1=NOC(COC(=O)c2ccc([N+](=O)[O-])cc2)C1 (centres undefined)	-7%
O=C(O)C(Oc1ccc2c(c1)oc(=O)c1ccccc12)c1ccccc1 (centres undefined)	-11%
O=C(c1c[nH]c(C(=O)C(Cl)(Cl)Cl)c1)c1ccccc1Cl	15%
COc1ccc(C(=O)N(NC(=O)Oc2ccccc2)C(C)(C)C)cc1	4%
